# Screens (PubChem)
# Vaccinia Venus = vaccinia inhibition (Venus reporter) | Vaccinia virus Venus reporter expression, fluorescence | Potency, µM (doses to about 36.5 µM), for inactives: at the highest dose activity change, negative = inhibition, actives largely listed as inhibitors | 330,000 tested, 0.46% active | AID 720580; active means well fitted inhibition curve with a large enough effect; inconclusive means small, poorly fitted or top-dose-only effect; inactive means no such curve, though single readings can be large or run the other way; tested in A549 cells; also: nearly all actives have a fitted effect of over 30% in size; inactives centre near -10
# Vaccinia mCherry = vaccinia inhibition (mCherry reporter) | 310,000 tested, 0.63% active | Potency, µM (doses to about 36.5 µM), for the others: top-dose activity change, negative = inhibition, hits mostly inhibitors | AID 720579 | Vaccinia virus mCherry reporter infection, fluorescence; about a quarter of the inactives have no number; active = well fitted inhibition curve with a large enough effect; inconclusive = small, poorly fitted or top-dose-only effect; inactive = no such curve, though single readings can be large or run the other way; tested in A549 cells; also: nearly all actives have a fitted effect of over 35% in size; inactives centre near -10
# An asterisk follows results filed as active; i = inactive; ? = inconclusive; . = no result given; & = joins results of further samples; [ ] = another dose, or the depositor's remark. % is scaled to controls: 0 for no effect and ±100 for the full control effect; potency is read from the fitted curve at half-maximal effect.
SMILES,Vaccinia Venus,Vaccinia mCherry
O=C(Nc1cccc2ccccc12)c1ccc(OC(=S)N2CCOCC2)cc1,-26%,-25%
NS(=O)(=O)c1ccc(N2CCCC2=O)c([N+](=O)[O-])c1,1%,i
C=CCN1C(=O)c2ccc(C(=O)N(CCC)CC(=O)Nc3ccccc3C)cc2C1=O,-8%,-8%
O=C(NCc1ccc(F)cc1F)[C@@H]1CCCN1C(=O)[C@@H]1CCCN1C(=O)c1cccc2ccccc12,-5%,i
CCCOc1ccc(F)cc1-c1cc(C(=O)NCc2cccc(Cl)c2)[nH]n1,-14%,-6%
O=C(NC1CC1)c1nc2c(nnn2Cc2ccccc2Cl)c(=O)[nH]1,3%,2%
CC1(NC(=O)C2CCCCC2)CCS(=O)(=O)C1 (centres undefined),-8%,-9%
CCN(CC(=O)NCc1ccc(Cl)cc1)C(=O)c1cnc(Cl)c(Cl)c1,-8%,i
CCOC(=O)c1c(C)[nH]c(C(=O)OCc2csc(CC(=O)Nc3ccccc3C)n2)c1C,-19%,-30%
Cc1nc(N)sc1C(=O)N/N=C/c1ccco1,2%,-5%
CC(=O)Nc1cccc(NC(=O)C(=O)NCCc2sc(-c3ccccc3)nc2C)c1,-4%[7.34 µM],-11%[7.34 µM]
COc1ccc(C(=O)Nc2nc3c(s2)Cc2c(Br)ccc(OC)c2-3)cc1OC,-7%,-10%
CC(C)CCNC(=O)C(C)N(C(=O)Cn1nnc(-c2ccc(F)cc2)n1)C1CCCC1 (centres undefined),-11%,-14%
COc1cc(OC)c(NC(=S)Nc2cccc(C(C)=O)c2)cc1Cl,-8%,-15%
COc1ccccc1CNc1ccc(-c2nc(-c3ccco3)no2)cc1[N+](=O)[O-],-8%,-16%
COc1ccccc1-c1sc2ccccc2c1-c1cnc(N2CCOCC2)nc1,-5%,29%
Cc1ccc(S(=O)(=O)N2CCCN(S(=O)(=O)c3ccccc3Br)CC2)cc1,-6%,-13%
CCOC(=O)CSCC(=O)Nc1nnc(-c2cccc([N+](=O)[O-])c2)s1,-6%,i
O=C(CCS(=O)(=O)Cc1ccccc1)NCCc1ccccc1,-7%,i
CC(=O)c1cccc(CN2CCN(CCC(C)C)C(CCO)C2)c1 (centres undefined),0%,-4%
NS(=O)(=O)c1ccc(CCNCc2cc(Cl)ccc2OCc2ccccc2)cc1,-19%,-27%
COC(=O)c1n[nH]nc1-c1ccccc1,3%,i
O=c1cnc2ccccc2n1Cc1ccc(Br)cc1,-15%,-20%
CC(=O)Nc1cc(-c2cccc(C(=O)NCCO)c2)cn2c(-c3ccc(F)cc3)cnc12,-9%,-15%
Cc1ccc(Cl)cc1NC(=O)N1CCC2(CC1)Oc1ccccc1C(=O)N2Cc1ccccc1F,-10%,i
CCC(C)[C@H]1CNCCN1CCc1cccc2ccccc12 (some centres undefined),-23%,-19%
COc1ccc(OC)c(NC(=O)c2ccc(CN3CCOCC3)cc2)c1,-10%,.
Cc1ccc2[nH]c(C(=O)NCCN3CCCC3)cc2c1,?,?
COCCOc1ccc(C(F)(F)F)cc1NC(=O)c1ccccc1,1%,-9%
Cc1cccc(NC(=O)C2CCCN(c3ncnc4c3nc3n4CCCCC3)C2)n1 (centres undefined),-10%,-11%
COc1ccc(CCNC(=O)CCC(=O)NC2CCCC(C)C2C)cc1OC (centres undefined),-8%,-2%
COc1cccc2c(=O)n(CC(=O)Nc3ccccc3F)ccc12,?,?
O=C(Cn1ncc2c3ccccc3n(Cc3ccc(Cl)cc3)c2c1=O)NCCC1=CCCCC1,-9%,0%
CCc1ccc(C2NC(=O)c3ccccc3O2)cc1 (centres undefined),-1%,-9%
CC1CN(S(=O)(=O)c2cccc(C(=O)NCCc3ccc(S(N)(=O)=O)cc3)c2)CC(C)O1 (centres undefined),-3%,-14%
O=C(Nc1nccs1)C1CCCN1S(=O)(=O)c1ccc(F)cc1 (centres undefined),3%,.
CCc1ccccc1NC(=O)c1cn(C)c(=O)c2ccccc12,-7%,-15%
c1ccc2c3nnc4n(c-3nc2c1)CCCS4,-7%,i
CN(N)c1nc(C(F)(F)F)nc2ccccc12,-11%,-24%
CCc1ccccc1NC(=O)CN(C)C(=O)CSc1nn(-c2ccccc2)c(=S)s1,-6%,i
Cc1cc(C)n2nc(C(=O)OCC(=O)Nc3ccc4c(c3)OCO4)nc2n1,-13%,-22%
COc1ccc(OC)c(/C=N\NC(=O)CSc2nnc(CCCc3ccc(OC)c(C)c3)o2)c1,-20%,-28%
CCOc1ccc(NS(=O)(=O)c2cc(NC(=O)CCNC(=O)c3ccco3)ccc2OC)cc1,-11%,-11%
Cc1cccc(NC2CNC(=O)NC2=O)c1 (centres undefined),8%,i
COc1ccc(OCCCC(=O)Nc2cc([N+](=O)[O-])ccc2C)cc1,-8%,-8%
CC(C)c1nnc(NC(=O)Cc2ccc(Br)cc2)s1,-9%,-13%
CCOC(=O)c1c(NC(=O)c2cc(-c3cccc(OC)c3)on2)sc2c1CCCC2,-7%[7.34 µM],-2%[7.34 µM]
CN(CC(=O)Nc1ccc(F)cc1[N+](=O)[O-])Cc1ccccc1,-8%,-5%
Cc1ccc(/C=N/Nc2ccc(F)cc2)s1,-11%,-10%
Cc1c(C(=O)OCCOc2ccccc2)[nH]c2c1C(=O)CC(c1ccccc1)C2 (centres undefined),-29%[7.34 µM],?
COc1cc(N)c(Cl)cc1C(=O)NC1CCN(Cc2ccccc2)CC1,-13%&-15%,-1%&-19%
O=C(CCC(=O)c1cccs1)OCC(=O)c1ccc(Cl)s1,-11%,-13%[1.46 µM]
N/C(=N\c1nc2ccccc2o1)NC(=O)c1cccc(Cl)c1,-16%,0%
CC(=O)O[C@@H]1[C@H](OC(=O)CC(C)C)c2c(ccc3ccc(=O)oc23)OC1(C)C,-18%,i
COc1ccccc1CN1CCN(C(=O)Cc2ccccc2)CC1,13%,.
Cc1nc(SCC(=O)Nc2ccccc2C)cc(-c2ccccc2)n1,-14%,-18%
CS(=O)(=O)N(CC(=O)NCCSCc1ccccc1)c1cc(C(F)(F)F)ccc1Cl,-4%,i
N#CC1=C(N)Oc2c(c(=O)oc3ccccc23)C1c1ccccc1OC(=O)c1cccs1 (centres undefined),-11%,-27%
Fc1ccc(Nc2c(-c3ccccn3)nc3ccc(Cl)cn23)cc1,9%,-4%
O=C(COc1ccccc1)Nc1ccc(C(=O)OCc2cc(=O)n3nc(C4CC4)sc3n2)cc1,-2%,-8%

# An excerpt of these results, as labelled records:
canonical_smiles: Cc1ccc(/C=N/Nc2ccc(F)cc2)s1
  Vaccinia Venus: -11%
  Vaccinia mCherry: -10%
canonical_smiles: N#CC1=C(N)Oc2c(c(=O)oc3ccccc23)C1c1ccccc1OC(=O)c1cccs1 (centres undefined)
  Vaccinia Venus: -11%
  Vaccinia mCherry: -27%
canonical_smiles: Cc1cc(C)n2nc(C(=O)OCC(=O)Nc3ccc4c(c3)OCO4)nc2n1
  Vaccinia Venus: -13%
  Vaccinia mCherry: -22%
canonical_smiles: CC1CN(S(=O)(=O)c2cccc(C(=O)NCCc3ccc(S(N)(=O)=O)cc3)c2)CC(C)O1 (centres undefined)
  Vaccinia Venus: -3%
  Vaccinia mCherry: -14%

# More compounds:
SMILES,Vaccinia Venus,Vaccinia mCherry
COc1cc2c(cc1OC)C1(Nc3c-2c(C)nn3-c2ccccc2)C(=O)Nc2ccccc21 (centres undefined),?,-22%[1.46 µM]
O=C(O)CCSCC(=O)Nc1c(C(=O)C2CC2)oc2ccccc12,-15%,.
COC(=O)c1cc(C(=O)c2c(C)cc3ccccn23)cc([N+](=O)[O-])c1,-21%,i
NC(c1cccc(F)c1)c1nc(-c2ccc(Cl)cc2)cs1 (centres undefined),-14%,13%
COC(=O)Cn1c(C)c(C#N)c2ccccc21,-5%,-14%
O=C(NC1CCCc2ccccc21)C1CCN(S(=O)(=O)c2cnc[nH]2)CC1 (centres undefined),-25%,-10%
CCCCCCN1C[C@H](n2cc(COC(=O)c3ccccc3)nn2)[C@@H](O)C[C@@H]1c1ccc(Cl)cc1,10µM*,?
Cc1ccc(NS(=O)(=O)c2ccc(-c3ccc(=O)[nH]n3)o2)cc1N(C)C,-11%,-4%
CC1CCC2(CC1)NC(=O)N(NC(=O)CCc1c[nH]c3ccccc13)C2=O (centres undefined),-12%,-2%
O=C(CC1SC(=Nc2ccccc2)N(CCCCO)C1=O)NCc1ccccc1 (centres undefined),-17%,-3%
COc1ccc(NC(=O)COC(=O)c2cc(OC)c(OC)c(OC)c2)c([N+](=O)[O-])c1,-13%,-7%
CC(C)C(NC(=O)c1cccnc1)C(=O)O (centres undefined),-2%,1%
CC(C)C[C@H]1CN(CCCC[C@@H]2CNC(=O)C(=O)N2CC2CCCCC2)C(=O)C(=O)N1CCc1ccccc1,3%,-9%
CC[C@H](NC(=O)c1c(C)c(-c2ccccc2)nc2ccccc12)c1ccccc1,-1%,i
N#CC1(NC(=O)CSc2nc3ccccc3s2)CCCCC1,-18%,-21%
CCN(C(=O)COC(=O)c1oc2ccc(OC)cc2c1C)C1CCS(=O)(=O)C1 (centres undefined),-8%,-21%
C/C(=N/NC(=O)c1ccncc1)c1cc2ccc(O)cc2oc1=O,-9%,-18%
Oc1c(Cl)cc(Cl)cc1/C=N/NC(=S)NC1CC2C=CC1C2 (centres undefined),?,?
Cc1cc(Cl)ccc1NC(=S)NC1CCCC1,-1%,-3%
COC(=O)C1=C(c2ccc3ccccc3c2)C[C@@H]2CC[C@H]1N2C(=O)NC1CCCCC1,-26%,-3%
CCOc1ccc(NCc2nc3ccccc3n2CCOc2ccc(C)cc2)cc1,?,-28%
CCCC(=O)N(c1ccc2oc3c(c2c1)CCCC3)S(=O)(=O)c1ccc(CC)cc1,2%,-1%
Oc1ccc(CNc2ccccc2O)cc1,5%,13%
Cc1cccc(NC(=O)CCNS(=O)(=O)c2ccc(Cl)cc2)c1,-7%,0%
Nc1ccn([C@@H]2O[C@H](C(=O)N[C@H](CO)c3ccccc3)[C@@H](O)[C@H]2O)c(=O)n1,1%,18%
CCN(C(=O)CSc1nnc(-c2ccc3c(c2)OCO3)o1)C1CCS(=O)(=O)C1 (centres undefined),-19%,-10%
CCC(C)/C(C)=N/Nc1ccc(S(N)(=O)=O)cc1[N+](=O)[O-] (centres undefined),-29%,-7%
CCN(CC(=O)Nc1c(F)cccc1F)C(=O)C1CCN(C(=O)c2ccc(F)cc2)CC1,-15%,-3%
CCCSc1nc(-c2ccc(OC)cc2)cc(-c2ccccc2OC)c1C#N,10%,-10%
NC(=O)NOCc1ccccc1,-12%,-8%
Cc1ccc(Cl)cc1-c1cc(C(=O)NCc2cc(C(F)(F)F)cc(C(F)(F)F)c2)[nH]n1,?,-27%
O=C(NC1CCN(Cc2ccccc2)CC1)C1CCN(S(=O)(=O)c2ccc(Cl)cc2)CC1,-8%,?
CN1C(=O)c2cccc3c(S(=O)(=O)N(C)C)ccc1c23,-15%,i
COc1ccc(N=C2SC(CC(=O)Nc3ccc(F)cc3)C(=O)N2Cc2ccco2)cc1 (centres undefined),-19%,-4%
COc1ccc(CNC(=O)CSc2n[nH]c(N)n2)cc1,-14%,-9%
CCN(CC)CCOC(=O)c1ccc(NC(=O)CSc2nnc(-c3cccs3)n2CC)cc1,-5%,-24%
O=C(NNC(=O)c1sc2ccccc2c1Cl)Nc1ccc(Cl)cc1,-9%,.
Cc1oc(-c2cccc(Cl)c2)nc1CS(=O)(=O)CC(=O)NCCN1CCOCC1,-14%,i
Cc1cc(CN2CCN(c3cccc(C)c3C)CC2)cs1,-2%,-11%
COc1ccc(C(=O)Oc2cccc(/C=N/NC(N)=S)c2)cc1,-18%,?
CCOc1ccc(CC(=O)Nc2c(C(=O)c3ccc(C)cc3)oc3ccccc23)cc1OCC,-7%,-3%
CC(NC(=O)/C(C#N)=C/c1ccc(C(=O)O)cc1)c1ccccc1 (centres undefined),-12%,i
C[C@@H]1COC(=O)[C@H](CC(=O)OC(C)(C)C)C/C=C\C[C@H](CC(=O)NCCO)C(=O)N1,-7%,i
COC(=O)C1(C)CCCC2(C)C1CCC13OCC(CC21)C(O)(C(C)C)C3O (centres undefined),-11%,?
COc1ccc2cc1Oc1ccc(cc1)CC1c3c(cc(OC)c4c3Oc3cc5c(cc3O4)CCNC5C2)CCN1C (centres undefined),?,?
CN(C)c1ccc(C(=O)Nc2nc3c(s2)CCCC3)cc1,-23%,?

# 3 of the compounds above, with two lines to a compound:
# The line under a structure holds: Vaccinia Venus | Vaccinia mCherry
Cc1oc(-c2cccc(Cl)c2)nc1CS(=O)(=O)CC(=O)NCCN1CCOCC1
→ -14% | i
Cc1cc(CN2CCN(c3cccc(C)c3C)CC2)cs1
→ -2% | -11%
COc1ccc(C(=O)Oc2cccc(/C=N/NC(N)=S)c2)cc1
→ -18% | ?

# Outcome played no part in choosing rows, and some 0.87% of all compounds hit somewhere here.
